E coli growth – E. coli growth inhibition, primary screen, OD600. Escherichia coli growth, 23 h; stronger effect = lower value. OD600 absorbance (test concentration not listed). hit rate 0.21% among 330,000. AID 1053175, 2014;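 active means OD600 absorbance below the run mean of sample wells minus 3.6 SD, in any replicate, cut at about 0.56 in these data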;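 further: stock transfer was 300 nL into about 60 µL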
LANA-H2A inh – blockers of LANA interaction with H2A/H2B – biochemical, FP readout, HTS, primary screen; cell-free LANA-H2A/H2B peptide, fluorescence polarization; inhibition, % (concentration not given with the values); hit rate 0.6% among 320,000; AID 2629, 2010; in the data active means inhibition mostly above about 10%, no sharp cut-off; inactive means mostly below about 6.7%;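 further: stock transfer was 7.5 nL into about 10 µL; 0% = median of vehicle wells and 100% = median of positive control wells; one replicate is shown; the record names a cut of 25% in any replicate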
HNF4A DNA FP – change in binding of human HNF4A to DNA, primary screen, biochemical, fluorescence polarization, FITC-DNA | 1 h | hit rate 0.3% among 360,000 | AID 1224865, 2016 | activity change, % at 10 µM | Hepatocyte nuclear factor 4-alpha (Homo sapiens), P41235; in the data active means activity change above about 30%, passing the limit was not always enough;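 further: controls were the assay level and a saturating level of protein; the project sought stronger binding though the title names inhibitors; some compounds called inactive have numbers as strong as hits; positive values seem to mean higher polarization but the record does not say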
Target sequence (P41235 whole entry, looked up): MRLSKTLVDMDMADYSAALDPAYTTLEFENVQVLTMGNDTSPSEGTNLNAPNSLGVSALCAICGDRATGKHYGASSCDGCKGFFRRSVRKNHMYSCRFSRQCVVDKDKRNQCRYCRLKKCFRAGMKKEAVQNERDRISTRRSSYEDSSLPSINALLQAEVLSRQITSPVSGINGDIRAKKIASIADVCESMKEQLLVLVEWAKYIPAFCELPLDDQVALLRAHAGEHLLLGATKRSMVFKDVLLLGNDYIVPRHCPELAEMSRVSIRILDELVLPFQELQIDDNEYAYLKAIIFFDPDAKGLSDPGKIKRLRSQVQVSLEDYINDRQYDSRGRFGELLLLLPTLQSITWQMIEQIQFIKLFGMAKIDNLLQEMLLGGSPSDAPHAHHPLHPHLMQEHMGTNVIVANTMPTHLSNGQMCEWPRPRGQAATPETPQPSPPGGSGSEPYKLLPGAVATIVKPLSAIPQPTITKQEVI
ALR inh – inhibitors of human ALR sulfhydryl oxidase, primary screen, biochemical, H2O2 detection, HRP-luminol luminescence, single point; hit rate 3.8% among 290,000; purified ALR, DTT oxidation; inhibition, % (concentration not given with the values); FAD-linked sulfhydryl oxidase ALR (Homo sapiens), P55789;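 active means mean and each replicate at 75% or more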;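 further: stock transfer was 7.5 nL into about 7.5 µL; 0% = neutral wells and 100% = wells with inactivated enzyme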
Beta2AR agonist – beta2AR agonists driving receptor internalization, primary screen, cell-based, FAP fluorogen, flow cytometry; Beta-2 adrenergic receptor (Homo sapiens), P07550; Am2.2-beta2AR cells; reference of the scale not given here; response, % (no concentration beside the values); hit rate 0.43% among 340,000;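 active means response above a set limit, near 3 SD of response in nonfluorescent compounds, cut at about 42% in these data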;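 further: stock transfer was 100 nL into about 11 µL; a reference agonist was the positive control; negative values mostly stem from fluorescent compounds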
FGF22 binding – binders of human FGF22 protein, primary screen, FGF22 synaptogenesis inhibitor project, biophysical, thermal shift, single point; AID 651658, 2012; recombinant FGF22 thermal shift, SYPRO orange fluorescence; percent of sucrose octasulfate shift, DMSO zero; hit rate 1.5% among 340,000; calls only at 9.99 µM; Fibroblast growth factor 22 (Homo sapiens), Q9HCT0;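 active means melting point raised past a set limit in the mean and every replicate; three in four hits are not shown here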
Target sequence (Q9HCT0 whole entry, looked up): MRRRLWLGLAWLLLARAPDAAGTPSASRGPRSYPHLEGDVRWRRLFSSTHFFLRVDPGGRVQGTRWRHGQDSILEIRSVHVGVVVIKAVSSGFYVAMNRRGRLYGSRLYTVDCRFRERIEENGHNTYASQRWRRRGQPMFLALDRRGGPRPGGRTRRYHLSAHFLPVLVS
UCH37 inh – inhibitors of human UCH37 deubiquitinase, primary screen, biochemical, Ub-AMC cleavage, fluorescence; Ubiquitin carboxyl-terminal hydrolase isozyme L5 (Homo sapiens), Q9Y5K5; purified proteasome/UCH37; inhibition, % (concentration not given with the values); hit rate 0.33% among 330,000;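 active means mean of two replicates above 20%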;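 further: 0% = compound-free wells with enzyme and 100% = wells lacking proteasome; stock transfer was 100 nL into about 20 µL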
Target sequence (Q9Y5K5 whole entry, looked up): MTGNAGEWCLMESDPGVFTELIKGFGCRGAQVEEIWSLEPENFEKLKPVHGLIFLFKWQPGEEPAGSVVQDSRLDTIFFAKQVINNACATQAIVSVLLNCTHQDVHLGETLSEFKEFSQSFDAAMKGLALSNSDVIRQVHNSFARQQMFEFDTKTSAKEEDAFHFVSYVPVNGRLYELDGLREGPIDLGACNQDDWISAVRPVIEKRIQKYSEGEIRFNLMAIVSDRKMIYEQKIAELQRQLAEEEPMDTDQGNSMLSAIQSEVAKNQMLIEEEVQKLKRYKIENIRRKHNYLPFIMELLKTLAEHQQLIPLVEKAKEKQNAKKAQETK
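system = Proteasome-associated human UCH37 deubiquitinase | amount = 0.15 nM proteasome as dispensed | medium = pH 7.4 Tris-HCl (50 mM) with ovalbumin, ATP-MgCl2, DTT | incubation = 30 min preincubation with enzyme, 25 min cleavage at room temperature | detection = AMC fluorescence 355/460 nm | read-out basis = percent inhibition | controls = no-proteasome and no-compound wells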
Numbers without * were called inactive; i = inactive; x = no result given. An excerpt; count on the stated rates, not on these rows.

SMILES	E coli growth	LANA-H2A inh	HNF4A DNA FP	ALR inh	Beta2AR agonist	FGF22 binding	UCH37 inh
Cc1cc(C)cc(OCC(=O)N2CCN(c3ncccn3)CC2)c1	0.67	2.4	0.6	2	-8	i	0.5
CCCCOc1ccc2ccccc2c1C=O	0.76	1.2	-3.7	-4	1	x	1.3
CN(C)C(=O)c1cc2cc([N+](=O)[O-])ccc2s1	0.77	7.4	1.0	-13	17	x	6.1
O=C1CC(C(=O)NCc2ccccc2)N=C(N2CCCCC2)N1 (stereo unspecified)	0.72	1.6	-1.5	x	2	x	4.1
O=C(NC1CCN(Cc2ccccc2)CC1)c1ccccc1NS(=O)(=O)c1ccc(F)cc1	0.68	0.2	4.0	18	-6	i	-11
NS(=O)(=O)c1ccc(NC(=O)C2(c3ccccc3)CCCC2)cc1	0.68	-3.2	-2.2	-6	0	i	1.7
Cc1cc(/C=C(\C#N)C(=O)Nc2ccccc2)c(C)n1-c1ccc2c(c1)OCO2	0.71	-4.0	1.8	-2	6	i	-5.9
CC(C(=O)NCC1(c2ccccc2)CCOCC1)N1CCOCC1 (stereo unspecified)	0.71	-3.9	-1.3	4	-8	i	0.8
O=C(N/N=C\C=C\c1ccc2c(c1)OCO2)c1cccnc1	x	-1.3	4.8	-4	1	i	x
C/C(=N\NC(=O)Cc1ccc(Cl)cc1)c1ccccn1	x	-0.7	-0.9	1	21	x	x
CCn1c(SCC(=O)N2CCOCC2)nc2c([nH]c3ccccc32)c1=O	0.72	3.0	0.9	4	6	i	-2.5
COc1ccc(N(C(=O)C2COc3ccccc3O2)C(C(=O)NC2CCCCC2)c2ccccc2)cc1OC (stereo unspecified)	0.69	-1.5	-2.3	-6	9	x	-1.2
COc1ccc(NC(=O)NC(C)c2ccc3c(c2)OCO3)c(OC)c1 (stereo unspecified)	x	-1.1	-1.2	-3	-8	i	x
CCCCn1nnc(NC(=O)c2ccc(-c3ccccc3)cc2)n1	0.7	-3.4	-0.4	0	-4	x	-2.9
COc1ccc(N(CC(=O)N/N=C/c2ccc(N(C)C)cc2)S(=O)(=O)c2ccccc2)cc1	x	-0.8	0.6	-5	8	i	x
CCN(C(=S)NC(=O)c1ccco1)c1cccc2ccccc12	0.66	4.4	1.9	x	2	i	-14
C=CCSC1=C(C#N)C(c2cccc(OC)c2)CC(=O)N1 (stereo unspecified)	0.79	-1.8	-1.4	-9	4	x	5.2
COc1ccc(CCNC(=O)Cc2ccc3c(c2)OCO3)cc1OC	0.71	3.1	-3.5	-34	0	x	0.6
Cc1ccnc2nc(C(=O)OCC(=O)N(CC(C)C)C3CCS(=O)(=O)C3)nn12 (stereo unspecified)	0.68	4.7	-1.8	x	-5	i	-0.1
COC1CCN(Cc2c(C(=O)N3CCc4ccccc4C3)nc3ccc(Cl)cn23)CC1	0.7	11	3.0	2	-14	i	-2.4
COc1cccc(NC(=O)CSc2ccc3nnc(CCNC(=O)c4ccccc4)n3n2)c1	0.7	-7.1	4.1	-4	2	i	3.0
Cc1cc(CNC(=O)C2(C(F)(F)F)C/C(=C\Cc3ccccc3)CCCO2)nn1C (stereo unspecified)	x	1.8	0.9	2	3	i	1.6
O=C(OCc1ccc([N+](=O)[O-])cc1)c1ccc(N2CCCC2)c([N+](=O)[O-])c1	0.7	-4.4	-4.6	-11	-12	i	1.0
O=C(NN=Cc1ccccc1Cl)c1cccc2ccccc12	x	x	4.1	x	-7	i	x
CCOc1ccc(C(=O)NCC(=O)OCC(=O)N2CCCCC2)cc1	0.71	-4.6	-1.2	-4	0	x	0.8
c1coc(Cn2c(SCc3nc4ccccc4[nH]3)nnc2-c2cnccn2)c1	0.69	-2.4	4.8	1	-6	x	-1.6
CCCN(CCC)S(=O)(=O)c1ccc(C)cc1	0.7	-9.0	-4.6	-14	-15	i	-0.9
COc1ccc(OC)c(NC(=S)NCc2ccccc2OC)c1	0.7	6.3	0.3	-22	4	i	4.3
Cc1csc2nc(CSc3nc4ccccc4o3)cn12	0.72	2.0	0.2	36	-9	x	1.7
CCN(CC)S(=O)(=O)c1cc(C)ccc1SC	0.69	2.4	1.3	0	-1	x	1.6

Record cards (already shown). Screens in order: E coli growth, LANA-H2A inh, HNF4A DNA FP, ALR inh, Beta2AR agonist, FGF22 binding, UCH37 inh
Record of `Cc1csc2nc(CSc3nc4ccccc4o3)cn12` : 0.72, 2.0, 0.2, 36, -9, x, 1.7
Record of `COc1cccc(NC(=O)CSc2ccc3nnc(CCNC(=O)c4ccccc4)n3n2)c1` : 0.7, -7.1, 4.1, -4, 2, i, 3.0

Next entries.
SMILES	E coli growth	LANA-H2A inh	HNF4A DNA FP	ALR inh	Beta2AR agonist	FGF22 binding	UCH37 inh
Cc1oc2nc(SCCCC(=O)NCCO)nc(N)c2c1C	0.75	-4.1	0.9	3	-1	x	-2.9
CCC1(c2ccccc2)NC(=O)N(CC#N)C1=O (stereo unspecified)	0.69	8.4	-3.9	-2	4	i	1.1
CC(=O)Nc1nc(C2COc3ccccc3O2)cs1 (stereo unspecified)	0.67	0.5	4.4	-2	-1	x	-0.7
Cc1cc(C)nc(SCc2csc(N)n2)n1	0.71	0.1	3.5	x	-1	x	2.4
O=S1(=O)CCOC[C@H](Cc2ccccc2)N1Cc1ccc(F)cc1	x	5.2	0.9	10	-6	i	2.5
CN1C[C@@H]2[C@@H]3C(=O)N(Cc4ccccc4)C(=O)[C@@H]3[C@](Cc3ccccc3)(C1=O)N2C(=O)c1ccc(C(F)(F)F)cc1	x	x	1.8	x	8	i	0.8
COCCn1c(=O)[nH]c2cc(C(=O)N3CCN(c4cccc(C(F)(F)F)c4)CC3)ccc2c1=O	0.67	3.1	1.1	-10	12	i	1.2
Cc1ccccc1C1NC(c2ccccc2C)C([N+](=O)[O-])C(C)(C)C1[N+](=O)[O-] (stereo unspecified)	0.68	5.1	1.7	4	-2	i	2.1
COc1ccccc1NC(=O)COC(=O)C1CC(=O)N(c2ccc3c(c2)OCCO3)C1 (stereo unspecified)	0.68	2.8	-2.2	32	5	i	3.5
CC(=O)C[C@@H](O)CC(=O)[C@H]1OC(=O)[C@@H](C)C/C=C\Cc2ccccc21	0.69	0.4	0.7	x	-8	x	4.0
CCOc1ccc(/C=N/OCC(=O)NC(c2ccccc2)c2ccccc2)cc1	x	1.1	0.1	-19	-10	x	x
CCn1ccnc1CN1CCc2c([nH]c3ccccc23)C1CC(C)C (stereo unspecified)	0.7	0.4	-0.7	67	8	i	-3.7
O=S(=O)(Cc1ccccc1)N1CCN(C2Cc3ccccc3C2)CC1	0.74	0.8	-0.7	4	3	x	-0.2
O=C(Nc1ccc(NC(=O)c2cc([N+](=O)[O-])ccc2N2CCOCC2)cc1)c1cccs1	0.68	-0.6	-1.8	x	-9	i	8.5
O=C(c1ccc(C(F)(F)F)cc1)N1CCN(S(=O)(=O)c2ccc3c(c2)OCCCO3)CC1	0.72	-3.2	1.6	0	5	i	3.9
CC(C)(C)OC(=O)NNC(=O)C12CC3CC(CC(C3)C1)C2	0.72	3.4	3.8	-22	-1	i	0.6
Cc1ccc2nc(-c3ccccn3)cc(C(=O)N3CCN(c4ncccn4)CC3)c2c1	0.78	-0.4	0.1	-5	4	x	2.4
Cc1sc(-c2c(C#N)c(N)nc3c2CCCCCC3)cc1[N+](=O)[O-]	0.72	5.2	6.1	-14	6	i	0.4
O=C(NCc1ccccc1)c1ccc(CN(c2ccccn2)S(=O)(=O)c2ccccc2)cc1	0.72	1.0	2.3	-13	1	x	-19
COc1ccc(CNC(=O)C(c2ccc(C)cc2)N(Cc2cccs2)C(=O)c2ccc3c(c2)OCCO3)cc1 (stereo unspecified)	0.7	4.7	-4.1	-2	30	x	4.0
CN(C)CCOC(=O)c1ccc2[nH]c3c(c2c1)CSCC3	0.66	-4.1	23	x	-4	i	7.8
Cc1cc(NC(=O)CCC(=O)N(CC(=O)NC2CCCC2)c2ccc3c(c2)OCCO3)no1	0.73	-3.8	0.1	-5	5	x	-0.2
C#CCOCCOCCOCCNc1nc(N2CCN(C(=O)[C@H](C)n3cc(CCC(=O)O)nn3)CC2)nc(N2CCN(C(=O)[C@H](C)n3cc(CCC(=O)O)nn3)CC2)n1	x	x	1.8	x	1	i	x
Cc1cccc(NC(=O)C(C)Sc2nnc(-c3cccnc3)o2)c1 (stereo unspecified)	0.63	0.2	-0.1	0	7	i	2.3
CCOC(=O)N1CCC(NC(=O)c2cn(-c3ccc(OC)cc3)c(=O)c3ccccc23)CC1	0.67	6.3	-0.9	-2	8	x	1.7
CCCCCC(/C=N/Nc1ccc(S(=O)(=O)N2CCOCC2)cc1[N+](=O)[O-])=C\c1ccccc1	x	2.1	5.6	1	-1	x	x
Cc1cc(NCCOCCO)n2c(nc3ccccc32)c1C#N	0.67	-2.0	3.9	0	9	i	i
CCOc1ccc(S(=O)(=O)NCCC(=O)NCC2CCCO2)cc1 (stereo unspecified)	0.69	8.0	2.5	0	2	i	3.5
C/C(=N\NC(=O)c1ccc(CN2CCOCC2)cc1)c1ccc(NC(=O)c2ccccc2)cc1	x	0.8	-2.9	2	1	i	x
CCOC(=O)C1CCN(Cc2ccc(F)c(F)c2)CC1	0.72	-3.3	2.6	0	-1	x	1.9
Cc1[nH]n(C2=NCCS2)c(=O)c1N=Nc1cccc(C(F)(F)F)c1	0.68	0.0	-0.3	3	7	i	6.2
O=C(NC1CCCc2ccccc21)c1ccc(Br)cc1 (stereo unspecified)	0.65	-2.8	-1.9	x	4	i	1.6
Nc1nc2n(n1)C(=O)CC(c1ccc(Cl)cc1)N2 (stereo unspecified)	x	-7.7	0.4	17	-4	i	x

Sorted by the number under ALR inh (smallest number first): three of the compounds above
compound	ALR inh
Cc1ccc2nc(-c3ccccn3)cc(C(=O)N3CCN(c4ncccn4)CC3)c2c1	-5
Cc1cc(NCCOCCO)n2c(nc3ccccc32)c1C#N	0
C/C(=N\NC(=O)c1ccc(CN2CCOCC2)cc1)c1ccc(NC(=O)c2ccccc2)cc1	2
